Assay outcomes from PubChem.
Ab BasE inh: blocks the Acinetobacter baumannii siderophore enzyme BasE; inhibition, % (concentration not given with the values); purified BasE, fluorescence polarization binding displacement; 0.1% of 84,000 active;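 active = both replicates above 25% with normal brightness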;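 note: 0% = negative plate control signal and 100% = positive plate control signal; stock transfer was 100 nL into about 30 µL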
KSHV LANA nucl: LANA-nucleosome interaction inhibition | 0.3% of 51,000 active | FITC-LANA1-23 / chicken nucleosome fluorescence polarization; stronger effect = lower value | z-score (test concentration not listed);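 active = both repeat wells score below -2 in polarization z-score versus plate sample wells, excluding overly bright wells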;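 note: 100 nL library stock added to about 30 µL; numbers are from one replicate; some results filed as inactive read as strong as hits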
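Test system: purified chicken nucleosomes with FITC-labelled LANA N-terminal peptide (1-23); Input: 240 nM purified chicken nucleosomes (480 nM peptide binding sites), final; Medium: TEN-BT buffer, pH 7.5; Timing: 10–45 min, room temperature; Technique: fluorescence polarization, 480 nm excitation, 535 nm parallel and perpendicular emission; Replication: duplicates.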
The depositor's hits bear a star; . = no result given; & = joins results of further samples.

SMILES	Ab BasE inh	KSHV LANA nucl
N#Cc1c(NC(=O)COC(=O)C2=COCCO2)oc(-c2ccccc2)c1-c1ccccc1	0.7	.
Cc1ccccc1NC(=O)C(C)Sc1nc2ncccc2o1 (stereo not given)	-3.2	2.2
COC(=O)c1ccccc1NC(=O)Nc1ccc(Cl)cn1	1.5	0.068
CC1(C)N=C(c2c(F)c(F)c(F)c(F)c2F)N(O)C1(O)c1ccccc1 (stereo not given)	2.7	0.037
CCCOc1ccc(-c2nonc2NC(=O)c2oc3ccc(F)cc3c2C)cc1OCCC	-0.6	-0.14
NS(=O)(=O)c1ccc(CNCC(F)(F)F)cc1	3.2	.
CCOC(=O)c1ccc(NC(=O)c2cnc3sccn3c2=O)cc1	1.6	-1.3
Cc1nnsc1C(=O)NCc1c(Cl)cccc1Sc1ccc(Cl)cc1	-0.7	.
NS(=O)(=O)c1ccc(NC(=S)N2CCc3ccccc3C2)cc1	-0.5	.
COC(=O)c1c(C)nc(C)c(C(=O)OC)c1-c1csc(S(=O)(=O)N2CCSCC2)c1	-0.2	.
CCn1c(C(=O)N2CCC(C(=O)NCc3cccc(OC)c3)CC2)cc2occc21	-0.5	-1.2
COc1ccc(OC2CCNCC2)cc1	1.3	-0.86
NC(CC(=O)OC1CCCCC1)C(=O)OC1CCCCC1 (stereo not given)	-0.1	-0.48
COc1ccc(N2C(=O)CC(NC34CC5CC(CC(C5)C3)C4)C2=O)cc1 (stereo not given)	0.7	-0.28
O=c1[nH]c2ccccc2c2ccccc12	3.1	0.088
Cn1cccc1C(=O)Nc1ccc2c(c1)nc1n2CCCCC1	0.9	.
O=C(O)C1CCCCC1C(=O)NCC1CCCCC1 (stereo not given)	-2.3	1.7
CC(=O)n1ccc2ccc(C(=O)CN3CCN(c4ccc(F)cc4)CC3)cc21	-1.6	0.42
CC1(NC(=S)Nc2ccccc2)CCS(=O)(=O)C1 (stereo not given)	2.5	.
Cc1ccc(OC(=O)c2ccco2)cc1C	2.4	0.23
Cc1onc(-c2ccccc2Cl)c1C(=O)Nc1ccccc1Cl	-0.3	.
Clc1cccc(Cc2nn[nH]n2)c1	1.5	-0.58
O=c1[nH]c(NC2CCN(S(=O)(=O)c3ccc(C(F)(F)F)cc3)CC2)nc2c1CCCC2	-1.6	0.18
O=C(NCc1ccccc1)NS(=O)(=O)c1ccccc1Cl	0.5	.
O=C(/C=C/c1cccs1)N(CC1CCCO1)c1nc2ccccc2s1 (stereo not given)	1.9	.
CN(C)S(=O)(=O)N1CCC(C(=O)Nc2ccccc2)CC1	0.0	-0.32
CCOc1ccc(-c2nnc(N3CCCCC3)c3ccccc23)cc1	2.0	.
CC(=O)NCCc1ccc(C(=O)CSc2nnc(C3CC3)n2C2CC2)cc1	0.9	.
CS(=O)(=O)c1ccc(-c2nnn(Cc3ccccc3)n2)cc1	-0.7	-0.33
CCS(=O)(=O)N1CCc2cc(C(=O)CSc3n[nH]c(=O)n3Cc3ccccc3)ccc21	-11	.
COC(=O)c1ccccc1COn1c(=O)c[n+]([O-])c2ccccc21	0.3	0.48
CC1CCN(S(=O)(=O)c2ccc(C(=O)NCCCN3CCCC3=O)cc2)CC1	-1.4	.
O=C(CSc1nnc(COc2ccccc2Cl)n1C1CC1)c1ccc(Cl)s1	-11	.
O=C1C2C3C=CC(C3)C2C(=O)N1N1CCCCC1 (stereo not given)	2.0	-1.2
CCc1ccc(NS(=O)(=O)c2cnn(CC)c2)cc1	0.9	-1.2
CCOC(=O)c1ccc(NC(=S)NC(C)c2ccc3c(c2)OCCO3)cc1 (stereo not given)	0.1	.
Cn1ncnc1C(O)(c1c[nH]c2ccccc12)C(F)(F)F (stereo not given)	2.0	.
O=C(NCc1ccco1)N1c2ccccc2Sc2ccccc21	-3.0	1.8
CCOC(=O)c1ccccc1NC(=O)COC(=O)C(C)N=C1NS(=O)(=O)c2ccccc21 (stereo not given)	1.7	.
Cc1cc(NNS(=O)(=O)CC23CCC(CC2=O)C3(C)C)nc2ccccc12 (stereo not given)	2.4	.
O=C(c1cccs1)N1CCN(c2cc(C(F)(F)F)nc3ccccc23)CC1	-4.9	.
Cn1cnc2c1c(=O)[nH]c(=O)n2C	-0.7&-2.7	0.36&1&0.36
Cc1cccc(NC(=O)CCOc2ccccc2)c1	0.9	.
COc1ccccc1N1C(=O)C=C(Nc2ccccc2)C1=O	1.9	-1
Cc1cc2cc(C#N)c(N3CCOCC3)nc2cc1Cl	-2.6	-0.074

Structural class: the compounds so far containing a CF3 group.
SMILES	Ab BasE inh	KSHV LANA nucl
NS(=O)(=O)c1ccc(CNCC(F)(F)F)cc1	3.2	.
O=c1[nH]c(NC2CCN(S(=O)(=O)c3ccc(C(F)(F)F)cc3)CC2)nc2c1CCCC2	-1.6	0.18
Cn1ncnc1C(O)(c1c[nH]c2ccccc12)C(F)(F)F (stereo not given)	2.0	.
O=C(c1cccs1)N1CCN(c2cc(C(F)(F)F)nc3ccccc23)CC1	-4.9	.

Continuation.
SMILES	Ab BasE inh	KSHV LANA nucl
CC1=NN2C(=NC(=O)C(n3nnnc3C)C2c2ccccc2)O1 (stereo not given)	2.2	.
Cc1cccc(NC(=O)C2CCN(c3ccc(-c4cccs4)nn3)CC2)n1	-7.4	-1.6
CN(C)/C=C/C(=N)SCc1c(Cl)cccc1Cl	.	-0.15
CC(C)c1ccc2nc(SCC(=O)NC(C)(C)C)c(C#N)cc2c1	-2.6	0.69
CCCC1CCC(c2ccc(OC(=O)c3cccnc3)cc2)CC1 (stereo not given)	0.2	.
COC(=O)c1sc(N)c(C(=O)OC)c1Cn1c(Cl)nc2c1c(=O)n(C)c(=O)n2C	1.7	.
COc1cc(CCN2C(=O)CCC2(C)C(=O)N2CCCC2)cc(OC)c1OC (stereo not given)	0.7	0.27
O=C(Cc1ccccc1)N/N=C/c1ccncc1	2.6	0.52
O=C(CN1C(=O)/C(=C\c2ccc(F)cc2)Oc2ccccc21)N1CCCC1	1.5	-0.64
S=c1[nH]cc(-c2ccccc2)n1-c1ccccc1	1.1	.
CN(C(=O)c1ccc(NC(=O)c2ccco2)cc1)C1CCCCC1	3.8	0.54
O=C(N/N=C/c1ccccc1)c1cccc(S(=O)(=O)N2CCCC2)c1	-0.8	.
O=C(Cn1ncc2ccccc21)Nc1ccc(Br)cc1F	6.4	-0.0075
CN1C(=O)/C(=C\c2c(Cl)nc3sccn23)N(C)C1=S	-0.3	.
COc1ccc(C2=C(N3CCN(c4ccccn4)CC3)c3ccccc3C2=O)cc1	1.7	0.024
CN(CC(=O)Nc1nnc(C2CC2)s1)S(=O)(=O)c1ccc(Cl)cc1	-0.7	.
CC(=NCCSCc1nc[nH]c1C)c1c(C)[nH]n(-c2nc3ccccc3s2)c1=O	-6.2	0.38
COCCn1c(-c2ccc(C(C)(C)C)cc2)n[nH]c1=S	1.7	.
CC(=O)Nc1nc(SCc2ccccn2)[nH]c(=O)c1NC(=O)c1ccccc1	3.3	-0.4
CNC(=O)C(C)n1nc(C)c2c(C)n(-c3ccccc3)nc2c1=O (stereo not given)	-0.5	.
O=C(NC(c1ccccc1)c1ccccc1)C1CC1	1.7	0.1
COc1cccc(C(=O)N2CCN(C(=O)c3ccccc3)CC2)c1	-0.1	-0.76
CC(C)NC(=O)c1cccc2cccc(Sc3ccccc3)c12	0.7	.
O=C(CN1CCOCC1)Nc1c(-c2ccccc2)c2cc(Br)ccc2[nH]c1=O	3.6	-0.16
CCSC1=N/C(=C\c2ccc(C)s2)C(=O)S1	2.2	.
Ic1cccc(CSc2nnnn2-c2ccc3c(c2)OCO3)c1	0.1	0.069
Cn1cnnc1SCc1ccc(C(=O)n2ncc(C#N)c2N)cc1	-3.6	.
CCCc1ccc(-c2nc(NC(=O)CSCC(=O)Nc3cc(C)on3)sc2C)cc1	2.1	.
CC(Oc1ccc(Cl)cc1)c1ccnc2c(C#N)cnn12 (stereo not given)	.	0.58
NCC1OC(OC2C(N)CC(N)C(O)C2O[C@@H]2O[C@H](CO)[C@H](O)C2O)C(N)C(O)C1O (stereo not given in full)	-0.1	-0.036
Cc1[nH]c2ccc(C(=O)Nc3ccc4c(c3)OCCO4)cc2c1C	-0.9	.
COCCn1c(C)cc(C(=O)CSc2nc3ccc(C)cc3[nH]2)c1C	2.8	.
O=C1c2ccccc2C(=O)C1c1cc(=O)[nH]c2ccccc12	33	-1.1
O=C(COc1ccc(S(=O)(=O)N2CCOCC2)cc1)NCc1ccccc1	-3.7	0.5
C=CCn1cc(/C=C2\SC(=O)N(C)C2=O)c2ccccc21	0.2	0.79
COc1ccccc1CCNC(=O)c1ccc(C)o1	-0.2	1.4
O=C(CSc1ccccc1)Nc1nc2c(s1)CCCC2	2.3	0.34
O=C(CSc1ncccn1)NC12CC3CC(CC(C3)C1)C2	-2.7	.
CCC(=O)c1ccccc1OCCn1cnc2ccccc2c1=O	1.3	0.27
Cc1ccc(S(=O)(=O)N2CCCC(C(=O)N/N=C3\CCS(=O)(=O)c4ccc(F)cc43)C2)cc1 (stereo not given)	0.1	.
O=C1CCC(C(=O)OCc2csc(Nc3ccccc3)n2)N1 (stereo not given)	-3.5	.
FC(F)(F)c1ccc(NCC2CCCO2)nc1 (stereo not given)	2.9	-1.3
CCNS(=O)(=O)c1ccc(-c2cc(C)no2)s1	-1.9	.
O=[S@@]1c2ccccc2Nc2cc(C(F)(F)F)ccc21	-0.6	-0.17
CCN(Cc1ccc2c(c1)OCO2)C(=O)c1oc2c(F)cccc2c1C	0.9	.

Record cards (already shown).
COCCn1c(C)cc(C(=O)CSc2nc3ccc(C)cc3[nH]2)c1C reads Ab BasE inh: 2.8; KSHV LANA nucl: .
O=C(COc1ccc(S(=O)(=O)N2CCOCC2)cc1)NCc1ccccc1 reads Ab BasE inh: -3.7; KSHV LANA nucl: 0.5

Additional structures:
SMILES	Ab BasE inh	KSHV LANA nucl
O=C(NCSC1=NCCS1)c1ccccc1	2.7	.
O=C1NC(=O)C(C2SC(=O)NC2=O)S1 (stereo not given)	-0.2	.
Cn1ccsc1=NC(=O)CCN1C(=O)c2ccccc2C1=O	0.9	.
CC(C)(C)C1=NNC2=C(c3nc(-c4ccc(Cl)cc4)cs3)C(N)=NC2C1=O (stereo not given)	-0.9	.
Cc1ccc(NC(=O)CC23CC4CC(CC(C4)C2)C3)cc1	1.8	.
Cc1cc(=O)n2c(n1)OC(CO)C2 (stereo not given)	-0.2	.
CN=c1scc(-c2[nH]c(C)c(C(=O)OC)c2C)n1C	-1.8	.
CC/C=C\C/C=C\C/C=C\CCCCCCCCCCCC(=O)O	4.6	0.17
CN(C)CCN(C)C1Cc2ccccc2C1	-0.2	-0.38
N#CNC(=Nc1ccccc1C(F)(F)F)N1CCCC1	-0.6	.
O=CN/N=C/c1ccc(N2CCOCC2)s1	-12	.
Cc1cc(/C=N/N2C(=O)c3ccccc3C2=O)cc(C)c1O	0.2	.
CN(CC(=O)Nc1ccc(F)cc1)C(=O)Cc1coc2cc3c(cc12)CCC3	-1.1	.
COc1ccc(CCNC(=O)c2onc(C)c2Cl)cc1OC	1.1	-0.28
CCN1C(=O)CC(c2ccccc2)S(=O)(=O)c2ccccc21 (stereo not given)	1.2	-0.83

Molecules listed so far that have a COOH group:
SMILES	Ab BasE inh	KSHV LANA nucl
O=C(O)C1CCCCC1C(=O)NCC1CCCCC1 (stereo not given)	-2.3	1.7
CC/C=C\C/C=C\C/C=C\CCCCCCCCCCCC(=O)O	4.6	0.17

The list goes on.
SMILES	Ab BasE inh	KSHV LANA nucl
O=C1CCC/C(=N/NC(=O)c2ccc(Cn3nnc(-c4ccccc4)n3)cc2)C1	0.5	.
CCOC(=O)c1sc(N)c(C#N)c1COC(=O)c1c(CC)noc1C	-15	.
CN(C(=O)COC(=O)c1ccc(Br)c(S(=O)(=O)N2CCOCC2)c1)c1ccccc1	-0.7	.
S=c1n(CN2CCOCC2)nc(-c2cccs2)n1CC1CCCO1 (stereo not given)	1.6	.
Cc1occc(=O)c1Oc1ncc(C(F)(F)F)cc1Cl	.	-0.59
CCN(CC)C(=O)c1cc2ccccc2cc1O	-1.0	-0.78
CCN(c1ccc(OC)cc1)S(=O)(=O)c1ccc2c(c1)CCN2C(=O)CCC(=O)O	1.2	-1
COc1ccc(C(=O)O)cc1NCc1ccncc1	0.8	2.1
Cc1cccc(N(CC(=O)N2CCCC2)S(C)(=O)=O)c1	3.5	-0.094
CNC(=O)COC(=O)c1cccs1	2.4	.
CCCCOc1ccc(C(=O)CCN2CCCCC2)cc1	-2.0&-1.1	0.28&-0.21&0.093
CCc1cccc(NC(=O)C(NC(=O)C2CCCCC2)C(C)C)c1 (stereo not given)	19	-0.3
CCOc1ccc(Cc2c[nH]c(=O)[nH]c2=O)cc1	5.6	-0.076
CCn1c(SCC(=O)N2CCOCC2)nc2ccc(I)cc2c1=O	-0.5	2.3
CSc1sc(C(=O)NN)cc1C#N	0.2	0.27
S=C(NCCSCc1ccco1)NC1CCCCC1	0.2	.
O=C(Cn1c(=O)cnc2ccccc21)NCC1CCCO1 (stereo not given)	1.4	.
O=c1[nH]nc(-c2ccccc2)o1	1.2	0.044
C=CCSc1nc2c(cnn2-c2ccc(C)cc2)c(=O)[nH]1	2.1	-0.94

Some of the compounds tested; count on the stated rates, not on these rows.
